# Compound activity deposited in PubChem by Southern Research Institute.
# Mtb H37Rv: Mycobacterium tuberculosis H37Rv growth inhibition, putative kinase inhibitor library, confirmatory dose response (AID 2842). M. tuberculosis H37Rv growth inhibition; higher % means a stronger effect; some inactives read as strong as hits. inhibition, % at 10 µg/mL; hits with a dose series show IC90 in µg/mL. 24,000 compounds, 5.2% hits;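 active = confirmed in a dose series; inconclusive = mostly over 85% at the one dose but not retested; inactive = below 85% or not confirmed; about a fifth of its hits are not listed in these tables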;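 also: bacteria incubated one week before Alamar blue readout; 0% = bacteria only wells and 100% = bacteria with high antibiotic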
# The depositor's hits bear a star; ? = inconclusive.
Compound	Mtb H37Rv
COCCN1CCc2nc(SCC(=O)Nc3ccc(C)c(Cl)c3)[nH]c(=O)c2C1	-10%
O=C(c1c[nH]c(=O)n(-c2ccc(Cl)cc2)c1=O)N1CCCc2ccccc21	24%
COC(=O)c1cc(Cl)c(NC(=O)c2cncc(Br)c2)cc1OC	0%
Nc1nc(SCC(=O)N2CCN(c3ccccc3)CC2)[nH]c(=O)c1NC(=O)c1ccc(Cl)cc1	1%
Cc1ccc(CNC(=O)CSc2nnc3ccc(-c4cccc([N+](=O)[O-])c4)nn23)cc1	6%
COc1ccc(OC)c(N/C=C(\C#N)c2nc(-c3ccc(C)cc3C)cs2)c1	-7%
CCS(=O)(=O)c1ccc(C(=O)Nc2nc3c(OC)ccc(Cl)c3s2)cc1	-10%
O=C(Nc1cccc(Cl)c1)c1cnc2sccn2c1=O	-6%
CC(C)(C)c1ccc(-n2c(=O)[nH]c3c(C(N)=O)nc(-c4ccccc4F)nc32)cc1	-4%
O=C(Nc1sc2c(c1-c1nc3ccccc3s1)CCCC2)c1ccc(Cl)cc1	-1%
COc1cc2c(=O)c(C(=O)c3ccc(C)cc3)cn(Cc3cccc(F)c3)c2cc1OC	-5%
O=C(CSc1nc2c([nH]c3ccccc32)c(=O)n1-c1ccccc1)Nc1nccs1	-12%
CCOC(=O)c1nn(-c2ccc(C)cc2)c(=O)c2c(NC(=O)c3ccc(Cl)cc3)scc12	-1%
O=C(c1ccc(C(F)(F)F)cc1)N1CCN=C1SCc1cccnc1	-2%
CCOC(=O)c1nn(-c2ccc(F)cc2)c(=O)c2c(NC(=O)c3ccc(Cl)cc3)scc12	7%
CCC(=O)NCc1nc2ccccc2n1Cc1ccc(Cl)cc1	7%
O=C(CSC1=NS(=O)(=O)c2ccccc2N1)NC1CCCC1	-12%
Cc1[nH]n(-c2ccccc2)c(=O)c1C=Nc1ccc2c(c1)OCO2	67%
Cc1nnc(SCCn2c(N3CCCCCC3)nc3c2c(=O)n(C)c(=O)n3C)s1	3%
O=C(CN1CCOCC1)N1N=C(c2c(-c3ccccc3)c3cc(Cl)ccc3[nH]c2=O)CC1c1ccccc1Cl (stereo not given)	17%
CC1=C(C(=O)OC2CCCC2)C(c2ccc(C)cc2)C2=C(CC(C)(C)CC2=O)N1 (stereo not given)	0%
COc1cc([N+](=O)[O-])cc(/C=N/n2c(=S)[nH]nc(C)c2=O)c1O	1%
Cc1cc(NC(=O)CC2CCCCC2)nc2c1c(=O)oc1ccccc12	-5%
COCCCNc1c2c3c(cccc3n(C)c1=O)C(=O)c1ccccc1-2	-4%
COc1ccc(CC(=O)Nc2cccc(-c3ccc4nnc(C)n4n3)c2)cc1	1%
CCOC(=O)c1oc2ccccc2c1NC(=O)COc1cccc(C)c1	-5%
Cc1nn2c(SCC(=O)c3ccc([N+](=O)[O-])cc3)nnc2[nH]c1=O	-20%
CCOc1ccc(N2CC(NC(=O)Nc3ccccn3)CC2=O)cc1 (stereo not given)	17%
COc1ccc(N2CCN(c3nc4c(c(=O)[nH]c(=O)n4C)n3CCSc3nnc(C)s3)CC2)cc1	6%
COc1ccc(OC)c(NC(=O)Cn2ccc3c(OC)cccc3c2=O)c1	9%
O=C(CCCCl)Nc1c(C(=O)Nc2ccc(F)cc2)oc2ccccc12	13%
COc1ccccc1Cn1cc2c(-c3ccc(Cl)cc3)nnc-2c2ccccc21	8.9µg/mL*
COc1cc(/C=N/Nc2nc(C)nc3c2cnn3-c2ccccc2)ccc1O	6%
Cc1ccc(-n2ncc3c(NC(C)C)ncnc32)cc1C	57%
CCN(CC)S(=O)(=O)c1ccc(C(=O)Nc2nc(-c3ccc(C)c(C)c3)cs2)cc1	20%
O=C1NC(=O)c2c(NC(=O)c3cc(-c4ccccc4)nc4ccccc34)cccc21	12%
O=C(Nc1sc2c(c1C(=O)O)CCCC2)c1cccs1	-33%
O=C(O)/C=C\C(=O)NNC(=O)CSc1nc2ccccc2[nH]1	-13%
COc1cccc2c(=O)n(CC(=O)Nc3ccc4c(c3)OCCO4)ccc12	3%
CCSc1nc(N)c(NC(=O)c2ccc(OC)c(OC)c2)c(=O)[nH]1	6%
Cn1c(=O)[nH]c(=O)c2c1nc(N1CCN(CC(N)=O)CC1)n2CCc1ccccc1	-9%
CCOC(=O)N1CCN(C(=O)c2c(C)oc3c2C(=O)c2ccccc2C3=O)CC1	-12%
CCOc1ccc(-n2c(=O)[nH]c3c(C(N)=O)nc(-c4cccc(C)c4)nc32)cc1	16%
CN(Cc1ccccc1)c1nc2c(c(=O)[nH]c(=O)n2C)n1Cc1ccccc1Cl	-6%
O=C(CCCl)Nc1c(C(=O)Nc2cccc(F)c2)oc2ccccc12	7%
CCOc1ccc2c(c1)c(=O)c(S(=O)(=O)c1ccc(Cl)cc1)cn2Cc1ccccc1F	10%
Cc1ccc(C)c(NC(=O)CS(=O)(=O)c2c[nH]c3ccccc23)c1	8%
CCn1c(=O)c2sccc2n2c(CCCC(=O)NCCc3ccc(S(N)(=O)=O)cc3)nnc12	-8%
Cc1ccc(-n2nc3c(c2NC(=O)c2ccc(F)cc2)CS(=O)C3)cc1 (stereo not given)	0%
CC(=O)C(C)Sc1nc2c(c(=O)[nH]c(=O)n2C)n1Cc1ccccc1Cl (stereo not given)	4%

# Additional compounds follow:
Compound	Mtb H37Rv
O=C(CC1Sc2ccccc2NC1=O)Nc1ccc(Cl)c(C(F)(F)F)c1 (stereo not given)	-12%
COC(=O)Cn1c(=NC(=O)c2ccc(F)cc2)sc2cc(S(N)(=O)=O)ccc21	53%
COc1ccc2cc(CCNC(=O)c3cccc4ccccc34)c(=O)[nH]c2c1	-4%
COc1cccc(NC(=O)CSc2nc3[nH]ncc3c(=O)[nH]2)c1	-2%
O=C(Nc1cccc(Cl)c1)c1oc2ccccc2c1NC(=O)C1CCCO1 (stereo not given)	5%
COc1ccccc1NC(=O)CCCN1C(=O)c2cccc3cccc(c23)C1=O	17%
O=C(CCCCCN1C(=O)c2ccccc2C1=O)NCCc1nc2ccccc2[nH]1	2%
CCOC(=O)c1nn(-c2ccc(C(F)(F)F)cc2)c(=O)c2c(NC(=O)c3ccco3)scc12	-1%
COc1ccc(CC(=O)Nc2c3c(nn2-c2ccc(Cl)cc2)CSC3)cc1OC	3%
CCOc1ccc(NC(=O)CSc2ccc3nnc(CCNC(=O)c4ccc(F)cc4)n3n2)cc1	7%

# Some of these compounds in order of length of the SMILES, highest first.
Compound	Mtb H37Rv
Cn1c(=O)[nH]c(=O)c2c1nc(N1CCN(CC(N)=O)CC1)n2CCc1ccccc1	-9%
CC(=O)C(C)Sc1nc2c(c(=O)[nH]c(=O)n2C)n1Cc1ccccc1Cl (stereo not given)	4%
CCOC(=O)c1oc2ccccc2c1NC(=O)COc1cccc(C)c1	-5%

# Following part:
Compound	Mtb H37Rv
O=C(Nc1nnc(-c2cc(Cl)ccc2Cl)o1)c1ccc2c(c1)CCCC2	26µg/mL*
CC(O)Cn1c(N=Nc2c(O)[nH]c3ccccc23)nc2c1c(=O)[nH]c(=O)n2C (stereo not given)	9%
Cc1nc2sc(C(N)=O)c(N)c2c(C)c1C	-1%
COC(=O)c1ccc(CSc2nc(-c3ccco3)nc3c2c(=O)n(C)c(=O)n3C)o1	-4%
Cc1nnc(NC(=O)CSc2nnc(CNC(=O)c3cccc4ccccc34)n2-c2cccc(Cl)c2)s1	10%
O=C(CSc1nc2c(c(=O)n1-c1ccc(Cl)cc1)SCC2)Nc1nc2ccccc2s1	0%
CCOC(=O)c1nn(-c2ccc(F)cc2)c(=O)c2c(NC(=O)c3cc(Cl)ccc3Cl)scc12	-7%
COc1cccc(C(c2sc3nc(C)nn3c2O)N2CCC(O)CC2)c1 (stereo not given)	-4%
NC(=O)c1nc(-c2ccc(F)cc2)nc2c1[nH]c(=O)n2-c1ccccc1F	-1%
C=CCNc1oc(Cc2cccc3ccccc23)nc1C#N	62%
COc1ccc(C(=O)OCCNC(=O)c2ccncc2)cc1OC	-6%
Clc1ccc(CCNc2nc3c(-c4cccc(Cl)c4)nnn3c3ccccc23)cc1	-2%
Nc1nc(SCC(=O)Nc2cccc(C(F)(F)F)c2)[nH]c(=O)c1NC(=O)c1ccco1	-3%
COc1ccc(NC(=O)c2cccc3c2C(=O)c2ccccc2-3)cc1	-6%
Cc1ccc(N2C(=O)C3N=NN(CC(=O)Nc4ccccc4C)C3C2=O)cc1Cl (stereo not given)	-11%
COc1ccc(N2CC(NC(=O)Nc3nc(C)cs3)CC2=O)cc1 (stereo not given)	-4%
COc1cccc2sc(Nc3nnc(-c4ccco4)o3)nc12	77%
CC(=O)C(C)n1cnc2sc(C(=O)OC(C)C)c(C)c2c1=O (stereo not given)	2%
O=C(Nc1nnc(-c2cccs2)o1)c1cccc(F)c1	?
Cn1c(Cn2c(=O)sc3ccccc32)nnc1SCc1cccnc1	3%
COc1ccccc1NC(=O)CN1C(=O)C2(SCC(=O)N2c2cccc(F)c2)c2cc(C)ccc21 (stereo not given)	-2%
Cc1cccc(-n2nnc3c(=O)n(CC(=O)c4ccc(Cl)cc4)cnc32)c1	-1%
Cc1nc2ccccn2c1/C(O)=C1\C(=O)C(=O)N(CCN2CCOCC2)C1c1ccncc1 (stereo not given)	14%
Cc1ccc(-c2nnc(NC(=O)C3CCCCC3)o2)c(C)c1	8.8µg/mL*
O=C(NCCCn1ccnc1)C(=O)NCC(c1ccco1)N1CCN(c2ccccc2)CC1 (stereo not given)	-16%
O=C(Cn1cnc2c(nnn2-c2cccc(F)c2)c1=O)N1CCCCC1	-10%
COc1ccccc1Cn1c(=S)[nH]c2cc(C(=O)NCc3ccc(F)cc3)ccc2c1=O	10%
N#Cc1ccc(-c2csc(NC(=O)CCc3ccccc3)n2)cc1	62%
COc1ccc(NC(=O)CSc2nc3[nH]ncc3c(=O)[nH]2)cc1	-3%
Cn1c(=O)c2c(nc(SCc3ccc(F)cc3)n2Cc2ccc(F)cc2)n(C)c1=O	17%
CCOC(=O)COc1cccc2c(=O)n(CC(=O)Nc3cc(C)ccc3C)ccc12	-7%
Cc1cccc(OCCCN2C(=O)C(=O)c3cc(Br)cc(C)c32)c1	1%
COc1ccc(OC)c2[nH]c(=O)c(CCNC(=O)/C=C\c3ccccc3)cc12	-1%
CC1CCc2c(sc(NC(=O)CS(=O)(=O)Cc3ccccc3)c2C(N)=O)C1 (stereo not given)	3%
O=C(NCc1ccco1)c1ccc(-c2cccc(Cl)c2)o1	4%
Cc1c(C)n2c3c(=O)n(CC(=O)OCc4ccccc4)c(=O)n(C)c3nc2n1Cc1ccco1	-5%
COc1cccc(C(=O)Nc2cc3c4c(c2)C(C)C(=O)N4CCC3)c1OC (stereo not given)	-1%
COc1cccc(C(=O)Nc2nc(-c3ccc4c(c3)OCO4)cs2)c1	43%
CC(C)Cc1nc(SCC(=O)Nc2ccc(C(N)=O)cc2)c2c(=O)n(C)c(=O)n(C)c2n1	3%
CCc1ccc(NC(=O)COC(=O)CCCC2=NS(=O)(=O)c3ccccc3N2)cc1	-14%
O=C(CSC1=NS(=O)(=O)c2cc(F)ccc2N1)NCc1ccccc1Cl	-13%
O=C(Nc1nnc(-c2cccs2)o1)c1ccco1	3.4µg/mL*
COc1ccc2nc(-c3cccc(NC(=O)c4ccc(F)c(F)c4)c3)cn2n1	-14%
C=CCOc1cccc(C2/C(=C(\O)c3ccc(C)cc3)C(=O)C(=O)N2Cc2cccnc2)c1 (stereo not given)	-2%
CCOC(=O)C1=C(C)N=c2s/c(=C3\C(=O)Nc4ccc(Br)cc43)c(=O)n2C1c1ccccc1 (stereo not given)	-2%
COc1cccc(/C=C(/C#N)c2nc(-c3ccc([N+](=O)[O-])cc3)cs2)c1	-1%
Cc1nn(-c2ccccc2)c2ncc(C(=O)Nc3ccc4c(c3)OCCO4)c(Cl)c12	-5%
CN(C)S(=O)(=O)c1ccc(C(=O)Nc2nc(-c3ccc(Cl)cc3Cl)cs2)cc1	-4%
COC(=O)c1c(NC(=O)C2CC(=O)NN2Cc2ccccc2)sc2c1CCC(C)C2 (stereo not given)	17%
COc1ccc(CCNc2nnc(Cc3ccccc3)c(=O)[nH]2)cc1OC	-1%

# (more compounds)
Compound	Mtb H37Rv
O=C(CSc1nnc2ccc(-c3cccs3)nn12)NCc1ccccc1Cl	-6%
O=C(OCc1nc2ccccc2s1)c1ccc(C(=O)c2ccccc2)cc1	17µg/mL*
COc1ccc(Nc2nc(N3CCN(c4ccc(F)cc4)CC3)nc3nccnc23)cc1	15%
COC(=O)Cn1c(=O)c2c(nc3n(-c4ccc(C)cc4C)c(C)cn23)n(C)c1=O	2%
Cc1cccc(NC(=O)c2cc3ccccc3oc2=O)c1	12%
Nc1nc(SCC(=O)N2CCc3ccccc32)[nH]c(=O)c1NC(=O)c1ccccc1	-12%
Cc1cccc(C(c2sc3nc(C)nn3c2O)N2CCOCC2)c1 (stereo not given)	-1%
Cc1ccc(NS(=O)(=O)c2cc(C)c3[nH]c(=O)cc(C)c3c2)cc1	-5%

# Given with each value named: part of the list above
> Nc1nc(SCC(=O)N2CCc3ccccc32)[nH]c(=O)c1NC(=O)c1ccccc1
  Mtb H37Rv: -12%
> O=C(CSc1nnc2ccc(-c3cccs3)nn12)NCc1ccccc1Cl
  Mtb H37Rv: -6%
> Cc1cccc(NC(=O)c2cc3ccccc3oc2=O)c1
  Mtb H37Rv: 12%
> COc1ccc(Nc2nc(N3CCN(c4ccc(F)cc4)CC3)nc3nccnc23)cc1
  Mtb H37Rv: 15%

# Only part of the results is shown, so the mix of outcomes need not match the whole.
